Screening data deposited in PubChem BioAssay by National Center for Advancing Translational Sciences (NCATS).
miR-21 FLuc = qHTS Assay for Modulators of miRNAs and/orActivators of miR-21; HeLa miR-21 FLuc reporter, luciferase, 48 h; 340,000 tested, under 10 active; Potency, µM (titrated, usually from 38.3 µM), for the others: at the top dose reporter change, positive = more light; AID 2288, 2010; active = well fitted rising curve with a large enough effect; inconclusive = small, poorly fitted or top-dose-only effect; inactive = no such curve, though single readings can be large or run the other way;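 further: % of control where 0% means no effect; miR-21 action dims this reporter so a rising signal means less miR-21 action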
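HeLa cells stably expressing CMV-driven firefly luciferase with a downstream miR-21 binding sequence, endogenously expressing miR-21, were treated with titrations (up to about 40uM final) for 48 hours at 37 degree Celsius. Luciferase luminescence was read after lysis.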
Starred values were filed as active, the others as inactive; ? = inconclusive. Only part of the results is shown; rates above refer to the full screens.

SMILES	miR-21 FLuc
COc1ccc(CNC(=O)C2CCCN(S(=O)(=O)c3ccc4c(ccn4C)c3)C2)c(OC)c1 (stereo unspecified)	-2%
CCOc1ccc(NC(=O)CSc2oc(-c3ccco3)nc2S(=O)(=O)c2ccc(Cl)cc2)cc1	2%
COc1cccc(CNC(=O)CCc2c(C)nn(-c3ccc(N4CCOCC4)nn3)c2C)c1	-13%
COc1ccc(Nc2c3c(nc4ccc(NC(=O)/C=C/c5cccc(OC)c5OC)cc24)CCCC3)cc1OC	?
CCCCC(=O)N1CCc2cc(OC)c(OC)cc2C1COc1ccc(OC)cc1 (stereo unspecified)	1%
Cc1ccc(Cn2c(SCC(=O)NCc3ccc(Cl)cc3)nc3ccsc3c2=O)cc1	-5%
COc1ccc(-c2nn3c(=O)cc(CN4CCN(S(=O)(=O)c5ccc(C)cc5)CC4)nc3s2)cc1	3%
COc1ccc(C2Nc3ccccc3-c3cc(C)nn32)c(OC)c1 (stereo unspecified)	-12%
CC(C)NC(=O)c1ccc(Cn2c(=O)c3cccn3c3cccnc32)cc1	-10%
Cc1cccc(-c2nc3scc(CCNS(=O)(=O)c4ccc5c(c4)OCCO5)n3n2)c1	-4%
CC(C)c1ccc(N2C(=O)CSC23C(=O)N(C)c2ccccc23)cc1 (stereo unspecified)	-11%
CCN(C(=O)Cn1c(=O)n(Cc2ccc3c(c2)OCO3)c(=O)c2ccc(C(=O)NC3CCCCC3)cc21)c1cccc(C)c1	2%

Entries listed so far that contain a Cl atom (2):
SMILES	miR-21 FLuc
CCOc1ccc(NC(=O)CSc2oc(-c3ccco3)nc2S(=O)(=O)c2ccc(Cl)cc2)cc1	2%
Cc1ccc(Cn2c(SCC(=O)NCc3ccc(Cl)cc3)nc3ccsc3c2=O)cc1	-5%

Looked up above:
COc1ccc(CNC(=O)C2CCCN(S(=O)(=O)c3ccc4c(ccn4C)c3)C2)c(OC)c1 (stereo unspecified) @ miR-21 FLuc = -2%
Cc1cccc(-c2nc3scc(CCNS(=O)(=O)c4ccc5c(c4)OCCO5)n3n2)c1 @ miR-21 FLuc = -4%
CC(C)NC(=O)c1ccc(Cn2c(=O)c3cccn3c3cccnc32)cc1 @ miR-21 FLuc = -10%
CCOc1ccc(NC(=O)CSc2oc(-c3ccco3)nc2S(=O)(=O)c2ccc(Cl)cc2)cc1 @ miR-21 FLuc = 2%
COc1cccc(CNC(=O)CCc2c(C)nn(-c3ccc(N4CCOCC4)nn3)c2C)c1 @ miR-21 FLuc = -13%
CC(C)c1ccc(N2C(=O)CSC23C(=O)N(C)c2ccccc23)cc1 (stereo unspecified) @ miR-21 FLuc = -11%
COc1ccc(-c2nn3c(=O)cc(CN4CCN(S(=O)(=O)c5ccc(C)cc5)CC4)nc3s2)cc1 @ miR-21 FLuc = 3%

(further entries)
SMILES	miR-21 FLuc
COc1cccc(C(=O)Nc2cccc(-c3cn4c(C)csc4n3)c2)c1OC	-20%
Cc1noc(/C=C/c2ccccc2F)c1S(=O)(=O)N1CCC(C(=O)NCc2ccco2)CC1	3%
COc1ccc2c(CNCc3ccco3)c(C(=O)O)n(Cc3ccc(F)cc3Cl)c2c1	6%
Cc1ccc(Cl)cc1NC(=O)CCCN1C(=O)CCn2nc(-c3cn(C)c4ccccc34)cc21	1%
CC1=C(C(=O)Nc2ccccc2)C(c2cccc(O)c2)n2nc(-c3ccccc3Cl)nc2N1 (stereo unspecified)	4%
Cc1ccc(/C=C/C(=O)Oc2ccc(C#N)cc2)o1	1%
Cc1ccc(CN2CCC(CNC(=O)c3cnn(-c4ccccc4Cl)c3C3CCN(C(=O)OC(C)(C)C)CC3)CC2)cc1	?
Cc1ccc2oc(=O)n(CCCOc3ccccc3Cl)c2c1	-53%
CCCCN1C(=O)C(O)(c2c[nH]c3ccccc23)c2cc(Br)ccc21 (stereo unspecified)	29%
COc1ccc(C(=O)Nc2nnc(SCc3cc(=O)c4cc(C)cc(C)c4[nH]3)s2)cc1	-5%
COc1ccc(-c2noc(CC(=O)Nc3ccc(C)c(F)c3)n2)cc1	-1%
CCN(CCCNC(=O)c1cc(Nc2ccccc2OC)nc2ccccc12)c1cccc(C)c1	6%
CCOc1ccc(-c2ccc(NS(=O)(=O)c3cc(C)ccc3OC)cc2)nn1	0%
O=C(Cc1ccccc1)Nc1sc2c(c1C(=O)Nc1ccc(Br)cc1)CCC2	-11%
Cc1ccc(Cn2ccn(CC(=O)Nc3c(C)cc(C)cc3C)c(=O)c2=O)cc1	1%
CC(=O)Nc1ccc(NC(=O)c2oc3c(c2C)-c2nn(Cc4ccccc4Cl)cc2CC3)cc1	1%
Cc1nc2cccnc2n1-c1cccc(C(=O)NCCc2ccc(Cl)cc2)c1	18%
CCn1cc(C(=O)OCC(=O)Nc2ccc(F)cc2F)c(=O)c2ccc(C)nc21	3%
COc1ccc(NC(=O)Nc2nnc(C)s2)cc1	-20%
Cc1cccc(C)c1NC(=O)Nc1csc2c1CCCC2	-2%
CCC(CO)Nc1ncnc2c1cnn2-c1ccc(C)cc1 (stereo unspecified)	-12%
CCOCCc1nn2c(=O)cc(COC(=O)c3ccccc3NC(=O)c3ccccc3F)nc2s1	-4%
CCCN(CCC)C(=O)c1nn(C)c2c1CSc1ccccc1-2	-1%
Cc1ccc2nc(CSc3nnc(NC(=O)CC(C)C)s3)cc(=O)n2c1	-3%
CC(=O)c1cccc(NC(=O)Cc2noc3ccccc23)c1	-2%
COc1ccc(NC(=O)c2c(NC(=O)COc3ccccc3)sc3c2CCCCC3)cc1	-2%
COc1ccc(-c2noc(-c3ccccc3NC(=O)c3cc(OC)c(OC)c(OC)c3)n2)cc1	2%
CCOC(=O)C(Cc1ccccc1)NC(=O)Cn1nnc(-c2ccc(C)cc2)n1 (stereo unspecified)	-4%
Cc1ccc(-n2ncc3c(NC4CCCCCC4)ncnc32)cc1Cl	-60%
CCSc1nn(CC(=O)Nc2ccc(C(=O)OC)cc2)c(N)c1S(=O)(=O)c1ccc(C)cc1	20%
Cc1ccc(-c2onc(C)c2C)cc1S(=O)(=O)NCc1cccs1	23%
O=C(Cc1ccc(NC(=O)N2CCCCc3ccccc32)cc1)NCc1ccccc1Br	8%
Cc1ccc2nc(-c3ccc(NC(=O)COc4c(C)ccc(C)c4C)cc3)sc2c1	-54%
Cc1nn(C)c2c1c(C(F)(F)F)cc(=O)n2CC(=O)Nc1ccc(F)cc1F	2%
CCOC(=O)C1=C(c2ccccc2)Nc2ncnn2C1c1ccc(Cl)cc1 (stereo unspecified)	0%
COc1ccccc1CNc1nc(-c2ccco2)nn1S(=O)(=O)c1ccc(C)cc1	-42%

Retrieved by compound from the entries so far, three records:
SMILES	miR-21 FLuc
Cc1ccc2nc(-c3ccc(NC(=O)COc4c(C)ccc(C)c4C)cc3)sc2c1	-54%
Cc1ccc(-n2ncc3c(NC4CCCCCC4)ncnc32)cc1Cl	-60%
COc1ccc(-c2noc(-c3ccccc3NC(=O)c3cc(OC)c(OC)c(OC)c3)n2)cc1	2%

Further structures follow:
SMILES	miR-21 FLuc
Cc1ccc(C2=Nc3ccccc3N(CC(=O)Nc3cccc(F)c3)C(=O)C2)cc1C	14%
COCCCNC(=O)c1c(NC(=O)c2nc(S(C)(=O)=O)ncc2Cl)sc2c1CCCC2	0%
CC(C)(C)c1ccc(Oc2nc3ccccn3c(=O)c2/C=C(\C#N)c2nc3ccccc3s2)cc1	-8%
O=C(NCCSCc1c(F)cccc1Cl)C1CCN(S(=O)(=O)Cc2ccccc2)CC1	5%
COc1ccc(C2C(C(=O)Nc3ccccc3)=C(C)Nc3nc(-c4ccccc4)nn32)cc1OC (stereo unspecified)	-13%
O=C1CC(c2ccc(Cl)cc2)N=C(NC(=O)c2ccccc2)N1 (stereo unspecified)	2%
COc1ccc(NC(=O)c2cc(-c3ccc4c(c3)OCO4)on2)c(OC)c1	-5%
CCCc1nnc(NC(=O)Cc2coc3ccc(C(C)C)cc23)s1	3%
CCC(C)NC(=O)c1ccc2c(c1)N(Cc1ccccc1F)C(=O)c1ccccc1S2=O (stereo unspecified)	-10%
Cc1ccc(S(=O)(=O)NCCc2cn3ccsc3n2)cc1	-5%
CC1=C(C(=O)Nc2ccc(C)cc2)C(c2ccc(Cl)cc2)n2nnnc2N1 (stereo unspecified)	11%
Cc1ccc(-c2nc(CCNC(=O)C(=O)Nc3ccc(F)cc3F)cs2)cc1	-13%
CCN(CC)c1ccc(C2C(C(N)=O)=C(C)Nc3ncnn32)cc1 (stereo unspecified)	3%
Cc1ccccc1CNc1nc(N(C)C)nc2c1cnn2C	-24%
CC1CN(C(=O)Nc2ccc(C(=O)NCCc3ccc(Cl)cc3)cc2)c2ccccc2S1 (stereo unspecified)	3%
CC(=O)Nc1cc(C(=O)NCc2ccccc2Cl)ccc1Sc1ccc(F)cc1	4%
O=C(Nc1sc2c(c1C(=O)NCc1ccco1)CCCC2)c1cc(=O)c2ccccc2o1	-67%
Cc1ccc(NC(=O)c2ccc(=O)n(Cc3ccccc3C)c2)c(C)c1	1%
CCc1ccc(NC(=O)CC(NCc2cccnc2)C(=O)O)cc1 (stereo unspecified)	-2%
COc1ccc(NC(=O)CC2C(=O)N(c3cccc(OC)c3)C(=O)N2CCc2cccs2)cc1 (stereo unspecified)	10%
CCc1ccc(S(=O)(=O)c2nnn(-c3cccc(C)c3)c2N)cc1	11%
N#Cc1ccc(C(=O)Nc2ccccc2-c2nc3ccccc3s2)c(F)c1	-4%
Cc1nc2nc(SCC(=O)NC3CCCCC3)nn2c(C)c1Cc1ccccc1Cl	-1%
Cc1ccc(-n2nc(C)c3c(C(=O)Nc4ccc(C)cc4Cl)cc(C)nc32)cc1	5%
CCOc1ccc(/C=C/C(=O)Nc2sc3c(c2C(=O)OC)CCCC3)cc1	0%
CC(=O)Nc1ccc(S(=O)(=O)Nc2cccc(-c3ccc(N4CCCCCC4)nn3)c2)cc1	-54%
CCN(c1cc(C)cc(C)c1)S(=O)(=O)c1nnc(NC(=O)c2cccc(F)c2)s1	13%
O=C(NCC(c1ccc2c(c1)OCO2)N1CCOCC1)C(=O)Nc1ccc(F)cc1F (stereo unspecified)	-2%
Cc1cccc2nc(-c3cccnc3)c(Nc3ccc(C(C)C)cc3)n12	?
COc1ccc2cc3cc(C(=O)N4CCN(c5ccc(C(C)=O)cc5)CC4)sc3nc2c1Cl	-2%
Cc1ccc(NC(=O)CSc2ncc(-c3ccccc3)[nH]2)cc1	-21%
CCOC(=O)c1cc(-c2ccc(OC)cc2)n(CCC(=O)NCc2ccc(OC)cc2)c1C	2%
COc1ccccc1-c1nnc(SCC(=O)c2ccc(F)cc2)n1-c1ccccc1	16%
CCN(CC)S(=O)(=O)c1ccc(NC(=O)c2ccc3c(=O)n4c(nc3c2)CCCCC4)cc1	?
CC(=O)c1ccc(OC(=O)c2c(-c3ccccc3Cl)noc2C)cc1	-2%
CC(C)(C)c1ccc(C(=O)NC2=NC(c3cccc(F)c3)CC(=O)N2)cc1 (stereo unspecified)	-2%
Cc1ccc(NCc2cccn2-c2nnc(N3CCC(C(=O)NCCC(C)C)CC3)s2)cc1	28%
CCc1nnc(SCc2nc(-c3cccc(Cl)c3)oc2C)c2cc3sc(C)cc3n12	-16%
COc1cccc(N2CCN(C(=O)c3cnc4c(-c5ccc(F)cc5)c(C)nn4c3C)CC2)c1	-11%
CC(C)(C)c1ccc(C(=O)NC(Cc2c[nH]c3ccccc23)C(=O)OCC(=O)c2ccc(Cl)cc2)cc1 (stereo unspecified)	-7%
Cc1cc(C)cc(NC(=O)CSc2nccn2C2CCCC2)c1	-22%
CCC(=O)N1CCc2cc(CNS(=O)(=O)c3c(C)cc(C)cc3C)ccc21	-12%
CC1CCN(C(=O)CSc2nc(-c3ccc(F)cc3)cc(C(F)(F)F)n2)CC1	-3%
Cc1cccn2c(=O)c(C(=O)NCCc3ccccc3)c(O)nc12	-22%
CCc1cccc(C)c1NC(=O)CSc1nc(C)cc(C)c1C(=O)Nc1ccccc1	9%
COc1ccc(C(=O)N2c3nc(-c4ccco4)nn3C3(CCCCC3)[C@@H]3CCCC[C@@H]32)cc1OC	-4%
CCOc1ccc2nc(N3CCN(C(=O)c4ccco4)CC3)sc2c1	-19%
COc1ccc(CNC(=O)C2CCN(C(=O)c3cnn(-c4ccccc4)c3-n3cccc3)CC2)cc1	29%
CCCN(Cc1cccs1)C(=O)Nc1ccccc1C	-1%
CN1CCN(CCNC(=O)c2cnn(-c3ccc(Cl)cc3)c2C2CCN(C(=O)OC(C)(C)C)CC2)CC1	-5%
COc1ccccc1-c1nnc(SCC(=O)Nc2ccccc2F)o1	-21%
O=c1cc2nc(-c3ccccc3)nc(SCc3cccc(Br)c3)n2[nH]1	-19%
COc1cc(C(=O)NCCCc2nc3ccccc3n2CC(C)C)cc(OC)c1OC	5%
Cc1cc2[nH]c(=O)c(=O)[nH]c2cc1S(=O)(=O)Nc1cccc(C(F)(F)F)c1	-4%
Cc1ccc(C)c(Cn2c3ccccc3c3cnn(CC(=O)NC(C)c4ccccc4)c(=O)c32)c1 (stereo unspecified)	-3%
Cc1c(C(=O)Nc2ccc(F)c(Cl)c2)oc2ccc(S(=O)(=O)N(C)C3CCCCC3)cc12	22%
Cc1cccc(C(=O)NCC(=O)OCc2cc(=O)n3nc(CC(C)C)sc3n2)c1	2%
CC(C)CCNC(=O)c1ccc(Cn2c(SCC(=O)NC(C)C)nc3ccccc3c2=O)cc1	-3%
CNC(=O)Cn1c(=O)c2cccn2c2ccc(F)cc21	-5%
CCOc1ccccc1CN1CCc2nc(Nc3ccc4c(c3)OCCO4)ncc2C1	22%
Cc1cc2nc3c(=O)n(C)c(=O)n(C)c3nc2cc1N=CN(C)C	0%
Cc1cc2c(cc1C)NC(CC(=O)Nc1cccc(C)c1C)C(=O)N2 (stereo unspecified)	-20%
CN(Cc1ccccc1)C(=O)c1ccc(CSc2nc3cccnc3n2Cc2ccccc2)cc1	?
